High-throughput results from PubChem.
TRPML1 blocker: human mucolipin-1 channel inhibition. Q9GZU1. TRPML1-inducible cells, Ca2+ dye fluorescence, FDSS; hits give low values; inhibition of EC80 agonist-evoked calcium signal. activity change, negative = inhibition, % (test concentration not listed). hit rate 0.02% among 390,000; in the data active means activity change below about -50%; inconclusive means about -30% to -50%; inactive means above about -30%;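 further: stimulus is agonist 54-4 at its EC80 concentration; on the % scale 0 is the no-effect control and ±100 the full control effect; compound concentration not given in the record; the text of the record puts the active cut at -80%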
Target sequence (Q9GZU1 whole entry, looked up): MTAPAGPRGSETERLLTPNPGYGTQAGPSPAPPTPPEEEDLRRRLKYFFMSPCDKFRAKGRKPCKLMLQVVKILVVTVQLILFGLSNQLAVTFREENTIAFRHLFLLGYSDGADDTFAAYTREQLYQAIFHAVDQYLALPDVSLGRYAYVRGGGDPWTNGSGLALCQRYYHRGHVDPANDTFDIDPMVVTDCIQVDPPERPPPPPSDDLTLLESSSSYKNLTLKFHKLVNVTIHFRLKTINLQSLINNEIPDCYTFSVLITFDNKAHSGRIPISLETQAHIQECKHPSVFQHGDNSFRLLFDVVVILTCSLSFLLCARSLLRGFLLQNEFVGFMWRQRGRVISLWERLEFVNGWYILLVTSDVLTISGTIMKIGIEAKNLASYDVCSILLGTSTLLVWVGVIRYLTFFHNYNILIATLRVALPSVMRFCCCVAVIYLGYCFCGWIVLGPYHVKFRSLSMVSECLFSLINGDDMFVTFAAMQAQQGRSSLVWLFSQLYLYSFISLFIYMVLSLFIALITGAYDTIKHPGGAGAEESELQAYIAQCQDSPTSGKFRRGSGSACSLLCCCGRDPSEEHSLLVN
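Calcium fluorescence in TRPML1-DL cells induced overnight with Tet: a 110 s read after compound pin addition, then a 110 s antagonist read after challenge with 54-4 at 4 uM final (EC80).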
ClpP mod: qHTS Assay for Activators of ClpP; ATP-dependent Clp protease proteolytic subunit (Bacillus subtilis (strain 168)), P80244; purified B. subtilis ClpP, FRET peptide cleavage, 20 min; Potency, µM (series often up to 57.5 µM), without a hit: top-dose activity change, negative = active; hit rate 1.9% among 340,000; AID 651965, 2013; active = well fitted falling curve with a large enough effect; inconclusive = small, poorly fitted or top-dose-only effect; inactive = no such curve, though single readings can be large or run the other way; further: potency means the concentration at half of the fitted maximal effect; the source files actives as falling curves though it sought activators and does not explain the sign; nearly all actives have a fitted effect of over 65% in size; many hits overshoot -100%
Target sequence (P80244 whole entry, looked up): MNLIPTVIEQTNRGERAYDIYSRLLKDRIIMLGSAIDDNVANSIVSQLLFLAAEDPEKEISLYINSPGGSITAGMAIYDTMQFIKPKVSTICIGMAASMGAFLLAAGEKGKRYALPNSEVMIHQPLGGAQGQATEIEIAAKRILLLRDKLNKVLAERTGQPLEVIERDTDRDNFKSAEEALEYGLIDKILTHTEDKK
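Purified B. subtilis ClpP, 10 microg/mL final in Tris/HCl pH8 with KCl, BSA, glycerol and Tween-20, cleaved an Abz/nitrotyrosine-quenched decapeptide. Fluorescence (ex 320, em 430) was read at 0 and 20 min at room temperature. Delta was normalized to 5.8 microM ADEP and DMSO/no-enzyme controls.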
gsp ag: gsp mutant agonism; gsp mutant cells, cAMP HTRF, 30 min; control for the full effect not named in the record; Potency, µM (top dose mostly 76.9 µM), without a hit: at the highest dose activation (cAMP increase), hits mostly activators; hit rate 0.13% among 340,000; active = well fitted activation curve with a large enough effect; inconclusive = small, poorly fitted or top-dose-only effect, or another doubt; inactive = no such curve, though single readings can be large or run the other way; cell line not stated here;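 further: phosphodiesterase inhibitor Ro 20-1724 added with compounds to block cAMP breakdown; potency means the concentration at half of the fitted maximal effect; nearly all actives have a fitted effect of over 60% in size; about a fifth of the inactives were tested at one dose only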
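Cells in DMEM/10% FBS with G418 were pretreated with compounds in DMSO plus […] (300 uM stock) for 30 min at 37C. cAMP was measured by HTRF (cAMP-d2 plus anti-cAMP antibody-K) after 30 min at room temperature.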
TRPML1 ag: activates the human TRPML1 channel; TRPML1-expressing cells, Ca2+ dye fluorescence, FDSS; host cell line not named in the record; reference of the full effect not given here; hit rate 0.12% among 410,000; Q9GZU1; activation, % (concentration not given with the values); in the data active = activation above about 50%; inconclusive = about 30% to 50%; inactive = below about 30%; further: 0% is about no effect; the text of the record puts the active cut at 80%
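TRPML1-DL cells, Tet-induced overnight (~16 h, 37 degrees C), loaded 45-90 min at room temperature with Ca8 no-wash calcium dye plus quencher. FDSS fluorescence: 10 s baseline, compound pin-transfer, 110 s agonist read, then EC80 54-4 (4uM final) and 110 s antagonist read.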
gsp antag: antagonizes gsp, the McCune-Albright syndrome mutation | gsp-mutant cells, cAMP HTRF, 30 min; control for the full effect not named in the record | hit rate 0.4% among 340,000 | Potency, µM (doses to about 76.9 µM), for the others: top-dose activity change, negative = inhibition, most hits filed as inhibitors | AID 624288; active = falling curve of any shape with a large fitted effect; inconclusive = falling curve, mostly with a smaller effect; inactive = flat or rising curve; cell line not stated here;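 further: intracellular cAMP measured with PDE inhibitor Ro 20-1724 present during compound exposure; potency means the concentration at half of the fitted maximal effect; on the % scale 0 is the no-effect control and ±100 the full control effect; nearly all actives have a fitted effect of over 65% in size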
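Cells, 2000/well, grown 16–24 h in DMEM 10% FBS with 0.5 mg/ml G418, then compounds plus […] (300 uM addition stock), 30 min at 37C. cAMP read by HTRF (cAMP-d2 and anti-cAMP antibody-K in lysis buffer) after 30 min RT.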
Menin MLL FP FL: inhibitors of human menin-MLL interaction, wild-type MLL peptide; Fluorescence polarization, fluorescein-MLL peptide displacement from menin; FP activity change, % at 61.4 µM; 290,000 tested, under 10 active; AID 1766; inconclusive = falling polarisation curve, or a change in total fluorescence; inactive = total fluorescence flat and polarisation flat or rising; no compound was filed as active; the % refers to the polarisation; negative = inhibition;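 further: % of control where 0% means no effect; inhibitors lower the polarisation; unlabelled MLL peptide was the positive control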
* marks the source's active call; other numbers are inactive results; ? = inconclusive; . = not tested or not shown; [ ] = another dose, or the depositor's remark.

SMILES	TRPML1 blocker	ClpP mod	gsp ag	TRPML1 ag	gsp antag	Menin MLL FP FL
Cn1c2ccccc2c2nnc(N/N=C/c3ccc(O)cc3)nc21	-8	2.6%	0%	1.0	1%	.
CN(C)c1ccc(/C=C(\C#N)c2ccccc2)cc1	58	1.6%	5%	2.6	27%	1.3
O=C(COC(=O)C1CCN(S(=O)(=O)c2cccs2)CC1)c1cc2ccccc2o1	85	-5.4%	-10%	5.4	-18%	12
Cc1ccc(OCC(=O)N(C)CC(=O)NCc2ccco2)c(Br)c1	-18	1.4%	-9%[15.4 µM]	2.0	-4%	.
Cc1ccc(-c2nnn(CC(=O)N(CC(=O)NCC3CCCO3)c3ccc(F)c(Cl)c3)n2)o1 (configuration not stated)	-23	-2.6%	-1%	1.8	-5%	5.8
COc1ccc(CN2CCNC(=O)C2CC(=O)N(C)Cc2ccncn2)c(OC)c1 (configuration not stated)	0	.	3%[15.4 µM]	-0.4	6%	-1.9
O=C(CN(c1cccc(Br)c1)S(=O)(=O)c1ccccc1)N/N=C/c1cc([N+](=O)[O-])ccc1O	-23	.	-149%[inhibitor]	-0.2	-31%	.
O=C(c1ccc(Cl)c(S(=O)(=O)N2CCc3ccccc32)c1)N1CCN(c2ccccc2O)CC1	0	-5.6%	-8%[15.4 µM]	0.3	?	.
COc1ccc(CCN2C(=NC(=O)C(C)C)SC3CS(=O)(=O)CC32)cc1 (configuration not stated)	5	.	42%	1.5	-14%	2.6
CCc1cccc(CC)c1NC(=O)CN1CCN(c2ccccc2)CC1	-3	-0.4%	-44%[inhibitor]	0.2	4%	0.6
Nc1c2c(nc3sc4c(c13)CCCCC4)CCCCC2	-4	0.4%	-1%	0.4	-35%	-0.8
COc1ccc(-c2nn(-c3ccccc3)cc2/C=C\C(=O)N2CCOCC2)cc1[N+](=O)[O-]	-1	.	?	0.1	2%	0.2
O=C(O)c1c2cc(Br)ccc2nc2[nH]c(=O)[nH]c(=O)c12	6	.	?	0.4	6%	.
CC(C)[N+](C)(C)CC(O)CN(c1ccccc1)c1ccccc1 (configuration not stated)	-10	-3.7%	-6%[15.4 µM]	-0.6	3%	2.5
Cc1nc(N2CCN(C)CC2)c2c(C)c(C(=O)Nc3ccc(C)c(F)c3)sc2n1	40	-0.7%	-8%	0.5	9%	4.5
COc1ccccc1-n1ccnc1SCC(=O)NCc1ccco1	-6	.	3%[15.4 µM]	0.1	-10%	-4.0
CC(=O)Nc1cccc(C(=O)OCC(=O)Nc2nnc(-c3ccccc3)o2)c1	0	-8.5%	-27%	0.2	2%	.
COCC(=O)N1CCCC(C(=O)c2ccc(Oc3ccccc3)cc2)C1 (configuration not stated)	7	.	1%[15.4 µM]	-0.1	.	-2.8
CCN(CC)S(=O)(=O)c1ccc(C(=O)NCCN2C(=O)S/C(=C\c3cccnc3)C2=O)cc1	-6	-2.9%	?	0.0	0%	-1.8
CC(/C=C/C=C/c1ccccc1)=N/NC(=O)c1ccc2c(c1)OCCO2	-1	.	-15%[15.4 µM]	-0.1	6%	-0.3
CCOc1ccccc1N1CC(C(=O)NCCOc2ccccc2OC)CC1=O (configuration not stated)	-12	-2.0%	-8%	0.1	5%	.
Cc1cc(C(=O)NC2CCCc3c2cnn3-c2ccc(C)c(C)c2)no1 (configuration not stated)	6	-2.6%	9%	1.6	-13%	.
CCCCNC(=O)CN1C(=O)C(CC)Oc2ccc(Cl)cc21 (configuration not stated)	14	-0.9%	-15%	0.7	-2%	1.3
CC1(C(=O)OCC(=O)Nc2ccc(C(N)=O)cc2)CC1(Cl)Cl (configuration not stated)	-10	.	6%[15.4 µM]	-0.6	4%	5.1
CC(C)OC(=O)c1cccc(C(=O)OCc2ccco2)n1	-6	?	9%[15.4 µM]	0.0	12%	1.5
Cc1ccc(N2CCN(C(=O)c3cnn(-c4ccc(C)c(C)c4)c3C3CCNCC3)CC2)c(C)c1	12	1.6%	.	0.2	.	.
NS(=O)(=O)c1ccc(NS(=O)(=O)c2ccc(NC(=O)C3CC3)cc2)cc1	-3	-3.1%	?	-0.4	16%	.
Cc1cc(C(F)F)n2ncc(C(=O)NCc3ccccc3F)c2n1	-1	0.5%	-17%	1.5	35%[activator]	3.3
COc1cccc(OCC(=O)Nc2cc(NC(=O)COc3cccc(OC)c3)cc(C(=O)O)c2)c1	.	1.0%	-11%	.	7%	3.9
CN(C)/C=C/C=C1C(=O)CCCC1=O	25	-0.8%	18%	-0.1	13%	2.9

Record cards (already shown). Order of screens: TRPML1 blocker	ClpP mod	gsp ag	TRPML1 ag	gsp antag	Menin MLL FP FL
NS(=O)(=O)c1ccc(NS(=O)(=O)c2ccc(NC(=O)C3CC3)cc2)cc1 across the screens: -3	-3.1%	?	-0.4	16%	.
COc1cccc(OCC(=O)Nc2cc(NC(=O)COc3cccc(OC)c3)cc(C(=O)O)c2)c1 across the screens: .	1.0%	-11%	.	7%	3.9

Further compounds.
SMILES	TRPML1 blocker	ClpP mod	gsp ag	TRPML1 ag	gsp antag	Menin MLL FP FL
O=C(O)c1ccc2c(c1)CCCN2	11	0.0%	-3%[15.4 µM]	0.4	-2%	0.9
COc1cc(C)ccc1OCCSc1nc2ccc(NC(=O)c3ccc(F)cc3)cc2s1	-7	-6.9%	.	0.8	.	.
CC(=O)Nc1ccc(-c2nnc(SCC(=O)Nc3ccc4c(c3)oc3ccccc34)n2C)cc1	6	-12%	-39%	0.1	16%	-0.7
O=C(NCc1ccccc1)/C(=C\c1ccccc1)NC(=O)c1ccco1	50	-2.0%	-21%	-0.3	-2%	1.3
Cc1ccc(/C=N/NC(=O)c2ccc(Br)o2)s1	6	-6.4%	3%	0.9	8%	6.5
C=CCN1C(=O)c2ccc(C(=O)N(CC)CC(=O)Nc3cc(Cl)ccc3C)cc2C1=O	11	-3.5%	-10%[15.4 µM]	0.5	2%	.
Cc1ccc(C(=O)Nc2ccccc2Sc2ccccc2)cc1	11	-1.4%	3%[15.4 µM]	0.5	8%	-0.9
CC(C)OCCCNC(=O)c1ccc2c(=O)n(Cc3ccc4c(c3)OCO4)c(=S)[nH]c2c1	4	?	0%[15.4 µM]	-0.6	1%	-1.8
CCOC(=O)N1CCc2c(sc(NCc3sccc3C)c2C(=O)Nc2ccc(OC)cc2OC)C1	-21	-1.0%	.	2.0	.	.
CC(C)c1ccc(NS(=O)(=O)c2cc(Br)cc3c2N(C(=O)C2CC2)CC3)cc1	19	1.2%	.	-0.6	.	.
CCc1nn2c(NCCCO)cc(C)nc2c1-c1ccc(F)cc1	.	-10%	-16%	.	-6%	-2.8
CC(C)CC(OC(=O)c1cccs1)C(=O)NCc1cccs1 (configuration not stated)	14	-0.6%	-40%[inhibitor]	0.7	2%	-0.6
Cc1ccc(S(=O)(=O)Nc2ccccn2)c(C)c1	29	3.5%	?	-0.5	.	.
CN(C)CCCN(C(=O)c1ccc2c(c1)CCCC2)c1nc2ccc(F)cc2s1	4	0.5%	4%	1.2	5%	1.1
CN(C)c1ccc(/C=C2/SC(=O)N(CCN=C3NS(=O)(=O)c4ccccc43)C2=O)cc1	-7	2.2%	4%	5.3	-12%	?
CC(C)Sc1nc(N2CCOCC2)c2c3c(sc2n1)COC(C)(C)C3	-8	-0.7%	-27%	0.7	-19%	.
O=C(NCC(=O)N1CCCC1)c1ccc(Cl)cc1	-15	.	-58%[inhibitor]	0.6	7%	-0.2
Cc1ccc(CN2CCN(c3cccc4[nH]ccc34)CC2)cc1	6	-1.9%	-2%	-0.7	8%	-0.3
COc1cc2ncnc(NCc3ccccc3F)c2cc1OC	.	-6.3%	35%	.	4%	0.9
Cc1ccc(C)c(NC(=O)CCc2c(C)nn(-c3ccc(N4CCCCC4)nn3)c2C)c1	-18	1.6%	27%	-1.2	-10%	-0.2
O=C(NC1CC1)C1=C[C@@H](C2CC2)C[C@@H](OCCCCO)O1	8	-4.1%	.	-0.4	6%	.
CC(C)OCc1c(C(=O)Nc2nccs2)oc2ccccc12	-12	-5.0%	?	0.3	-4%	15
COCCNC(=O)C(=O)NCC1OCCN1S(=O)(=O)c1ccc(F)cc1 (configuration not stated)	-11	0.4%	-15%[15.4 µM]	-0.1	15%	.
Cc1cccc(C)c1OCc1nnc(SCC(=O)NCc2ccccc2)o1	10	1.2%	8%	1.0	-13%	1.0
Cc1ccc(Cn2c(=O)c3c(nc4n3CCCN4Cc3ccccc3)n(C)c2=O)cc1	10	-2.8%	22%	0.5	-2%	0.4
CN(C)c1nc2n(c(=O)n1)CCS2	33	0.8%	3%	1.1	2%	-1.6
COc1ccc(OCC(=O)Nc2c(C(=O)N(CCN(C)C)Cc3ccco3)oc3ccccc23)cc1	-15	-14%	5%	-0.8	-1%	0.2
COc1ccc(OCC(O)Cn2c(N)nc3c2c(=O)[nH]c(=O)n3C)cc1 (configuration not stated)	3	.	5%[15.4 µM]	0.7	7%	0.9
Cc1cc(Nc2ccc(Br)cc2F)n2nc(C)nc2n1	3	0.2%	16%	0.1	-1%	-0.2
COc1cc(C2C3=C(CC(C)(C)CC3=O)Nc3ccccc3N2C(C)=O)cc(OC)c1OC (configuration not stated)	-4	-8.8%	5%	0.2	4%	-3.9
COc1ccc([C@H]2CC(=O)C=C(c3cccc(C(C)C)c3)C2)cc1	-9	1.4%	?	-0.1	-6%	.
Cc1cc(C(=O)N2CCN(c3ccc(C(F)(F)F)cn3)CC2)c(C)o1	-12	-4.1%	24%	-1.0	0%	5.0
c1cc(-c2n[nH]c(-c3ccncc3)n2)ccn1	5	-20%	7%	1.2	-1%	.
O=C(CS(=O)(=O)c1cn(Cc2ccc(Cl)cc2)c2ccccc12)N1CCCCC1	-6	0.0%	-53%[inhibitor]	0.0	-12%	2.1
CCOc1cc2[nH]c(=O)n(CCC(=O)N3CCN(c4ccccc4)CC3)c(=O)c2cc1OCC	10	?	.	-1.1	.	.
O=C(COC(=O)/C=C/c1ccc(F)cc1)Nc1ccc2[nH]c(=O)[nH]c2c1	-2	-2.9%	18%	0.2	3%	.
CCC(C)(C)n1nnnc1CN(Cc1ccc(Cl)cc1)Cc1ccco1	61	-1.5%	-33%[inhibitor]	-0.7	-25%	5.0
CCOC(=O)c1c2ccc(OCC(=O)NN)cc2n2ccccc12	7	-25%	29%	4.5	-16%	?
COc1ccc(-c2nc(CSCC(=O)NCCC3=CCCCC3)c(C)o2)cc1OC	8	25µM*	38%	1.6	-24%	-3.7
CCn1c(SCc2ccc(F)cc2Cl)nnc1-c1nonc1NC(C)=O	-4	1.0%	.	0.1	.	.
COc1ccc(S(=O)(=O)Nc2ccccc2C(=O)N2CCOCC2)cc1F	8	0.9%	-13%	1.1	7%	-2.1
NS(=O)(=O)c1ccc(NC(=O)c2cc(-c3ccccc3O)n[nH]2)cc1	-1	-1.3%	-6%[15.4 µM]	-1.3	-30%	-0.7
